Mtb bLac sens – beta-lactam sensitization of Mtb H37Rv; M. tuberculosis H37Rv growth with meropenem, percent inhibition; hits of this screen are not shown here; inhibition, % at 25 µM; actives 0.27% (n = 330,000); AID 434955;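 active = about 74% or more and at least 40 points above the plate without the antibiotic, then above 30% in a dose series; inconclusive = first-round hits that could not be retested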;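 also: growth measured after seven days incubation then overnight dye step; 0% = bacteria only wells and 100% = bacteria with antibiotic; twin plates without the antibiotic show which effects depend on it; some results filed as inactive read as strong as hits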
RecA splice inh – blocks M. tuberculosis RecA intein splicing | actives 0.75% (n = 290,000) | cell-free RecA intein splicing, fluorescence | inhibition, %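 (about 9 µM by stock and volumes)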 | AID 2221; in the data active = inhibition above about 30%; inconclusive = no clear call, values can overlap the other calls;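 also: 0% = vehicle wells and 100% = reference inhibitor control wells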
Target sequence (P9WHJ3 whole entry, looked up, canonical isoform): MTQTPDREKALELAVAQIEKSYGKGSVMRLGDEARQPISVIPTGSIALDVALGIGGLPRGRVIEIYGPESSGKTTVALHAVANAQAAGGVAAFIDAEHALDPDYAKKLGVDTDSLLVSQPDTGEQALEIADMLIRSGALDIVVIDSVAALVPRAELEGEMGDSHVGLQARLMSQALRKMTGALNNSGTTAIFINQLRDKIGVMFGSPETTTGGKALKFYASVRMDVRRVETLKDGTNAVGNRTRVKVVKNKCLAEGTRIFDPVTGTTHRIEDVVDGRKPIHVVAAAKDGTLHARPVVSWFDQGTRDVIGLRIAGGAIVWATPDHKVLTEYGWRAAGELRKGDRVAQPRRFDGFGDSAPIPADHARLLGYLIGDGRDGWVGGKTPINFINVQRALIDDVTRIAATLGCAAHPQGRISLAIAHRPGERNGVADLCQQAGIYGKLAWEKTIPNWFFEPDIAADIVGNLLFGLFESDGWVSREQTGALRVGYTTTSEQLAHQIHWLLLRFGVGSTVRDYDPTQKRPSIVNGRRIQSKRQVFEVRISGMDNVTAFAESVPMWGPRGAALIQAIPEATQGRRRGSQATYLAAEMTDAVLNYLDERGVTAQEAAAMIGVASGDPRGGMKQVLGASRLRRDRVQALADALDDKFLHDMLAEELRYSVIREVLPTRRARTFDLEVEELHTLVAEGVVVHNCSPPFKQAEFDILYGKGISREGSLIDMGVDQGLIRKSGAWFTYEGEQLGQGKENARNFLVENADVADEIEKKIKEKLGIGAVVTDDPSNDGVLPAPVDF
YopH inh – inhibitors of Yersinia enterocolitica YopH tyrosine phosphatase; actives 0.16% (n = 140,000); inhibition, %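 (about 10 µM by stock and volumes)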; fluorescence Ex485/Em525; AID 898;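 active = inhibition of 50% or more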;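 also: controls were vehicle for no effect and minimum signal wells for full effect; inactives centre near -20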
Arbovirus inh – arbovirus infection inhibition. actives 0.37% (n = 200,000). inhibition, % at 10 µM. arbovirus infection cell-based antiviral screen;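 active = inhibition from about 30%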;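 also: bluetongue infection of BSR cells; cell survival read as ATP light after 72 h; 0% = infected wells without compound and 100% = uninfected wells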
Mtb growth – M. tuberculosis H37Rv growth inhibitors, H37Rv strain (AID 1626) | M. tuberculosis H37Rv growth inhibition; higher % means a stronger effect | actives 0.95% (n = 220,000) | one-dose inhibition, % at 10 µM; IC50 in µM for titrated hits;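 active = confirmed in a dose series; inconclusive = inhibition above 80% but not taken into the dose series; inactive = below 80% or under 30% at every dose of the series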;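 also: bacteria incubated seven days before Alamar blue readout; 0% = bacteria only wells and 100% = bacteria with antibiotic wells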
Arbovirus inh repeat – recorded beside Arbovirus inh, whose call it bears; inhibition, %; measured here: 10K subset replicate screen; many hits read low in the repeat;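 first of two repeat runs on a subset; 0% = infected and 100% = uninfected wells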
Active calls of the source: *; ? = inconclusive; . = no result given.

SMILES	Mtb bLac sens	RecA splice inh	YopH inh	Arbovirus inh	Mtb growth	others
O=C(O)COn1c(-c2ccccc2)nc2ccc([N+](=O)[O-])cc21	-2	4.6	.	-2	-5%
CCn1c(SCC(=O)NCc2ccco2)nnc1-c1ccc(N)cc1	-3	1.3	-22	-5	.
CCc1ccc(NC(=O)CSc2nc3cc(C(=O)OC)ccc3c(=O)n2Cc2ccco2)cc1	1	0.1	-15	0	-5%
Cc1c(C(=O)O)sc2nc(/C=C/c3cccc(F)c3)[nH]c(=O)c12	9	-4.3	.	.	.
CC1CCC(=NNC(=O)c2ccccc2-n2cccc2)CC1 (stereo not drawn)	-3	0.1	.	.	.
CCC(C(=O)Nc1ccc2c(c1)OCCO2)n1c(=O)[nH]c2ccccc2c1=O (stereo not drawn)	-4	4.3	.	.	.
COc1nc(OC)nc(N2CCC(C(=O)NCc3ccc(F)cc3)CC2)n1	-4	0.5	-8	1	-7%
COC1CCCN(Cc2c(C(=O)N3CCc4ccccc4C3)nc3ccc(Cl)cn23)C1 (stereo not drawn)	0	2.7	.	.	.
CCOc1ccc(N(C(=O)c2snc(C(N)=O)c2N)C(C)C(=O)NC2CCCCC2)cc1 (stereo not drawn)	2	-7.9	.	.	.
CC(=O)Nc1ccc(NC(=O)/C=C/c2cccc(C(F)(F)F)c2)cc1	-10	-0.9	-20	-6	0%
O=S(=O)(NC1=NCCC1)c1cccc(NC(=S)NCCc2ccccc2)c1	0	0.6	-26	0	0%
Cc1noc(C)c1COc1ccccc1C(=O)NCCc1ccc(S(N)(=O)=O)cc1	-8	-3.0	.	.	.
CC(C)N(CC(O)COc1ccc(CC(N)=O)cc1)CC(O)COc1ccc(CC(N)=O)cc1 (stereo not drawn)	-1	-2.1	.	.	.
O=C(NCCCN1CCCCC1)c1ccc2c(c1)NC(=O)C(N1CCCCC1)S2 (stereo not drawn)	-8	1.3	-43	2	-8%
O=C(COC(=O)Cc1ccc(Cl)cc1)Nc1c(F)cccc1F	83	0.1	.	9	1%
Cc1cc(C=O)c(C)n1-c1cc(C(=O)O)cc(C(=O)O)c1	-11	-0.6	.	13	-14%
Nc1c(C=C2C=CC(=O)C=C2)c(=O)nc2sc(CC(=O)N3CCOCC3)nn12	-3	-0.4	.	.	.
COCCn1c(C)cc(C(=O)CSc2nnc(C)s2)c1C	-6	-3.7	-19	5	.
Cc1ccc(-n2c(SCC(=O)N(C)C)nnc2-c2ccco2)cc1	-12	-6.3	.	.	.
COc1ccc(Sc2nnc(Cc3ccccc3)c3ccccc23)cc1	-3	7.0	-37	-5	7%

Looked up one by one from the list above, 2 records:
SMILES	Mtb bLac sens	RecA splice inh	YopH inh	Arbovirus inh	Mtb growth	others
COC1CCCN(Cc2c(C(=O)N3CCc4ccccc4C3)nc3ccc(Cl)cn23)C1 (stereo not drawn)	0	2.7	.	.	.
Cc1noc(C)c1COc1ccccc1C(=O)NCCc1ccc(S(N)(=O)=O)cc1	-8	-3.0	.	.	.

New compounds follow
SMILES	Mtb bLac sens	RecA splice inh	YopH inh	Arbovirus inh	Mtb growth	others
COc1ccc(N(CC(=O)NCc2ccc(F)cc2)C(=O)c2snc(C(N)=O)c2N)cc1	7	-1.9	.	.	.
COC(=O)c1c(C(=O)OC)c(-c2ccc(OC)cc2)n2c1CCC2	3	1.5	.	.	.
CCCOc1ccc(OCCN2CCCC(C)C2)cc1 (stereo not drawn)	-3	-2.9	-13	-20	0%
CCCc1ccc(Oc2c(-c3ccc(O)c(C)c3O)n[nH]c2C)cc1	3	14	-37	-14	-21%	Arbovirus inh repeat=-43
CCOC(=O)c1ccc(N=Nc2c(C)c(C#N)c(O)[nH]c2=O)cc1	82	-1.8	.	-10	87%
COc1ccc2[nH]c(C(=O)O)c(NS(=O)(=O)c3ccc(C)cc3C)c2c1	-9	-2.1	.	.	.
CCc1ccccc1NC(=O)NC(C)c1ccc2c(c1)OCO2 (stereo not drawn)	-7	1.2	.	.	.
CCCCn1c(N)c(N(CCC(C)C)C(=O)C2CC(=O)N(c3cccc(SC)c3)C2)c(=O)[nH]c1=O (stereo not drawn)	-13	1.1	.	.	.
CCCCC(=O)Nc1ccc(NC(=S)NC(=O)c2ccco2)cc1OC	94	2.5	.	.	2%
O=C(NCc1nnc(SCC(=O)N2CCOCC2)o1)c1cccs1	-4	0.9	.	1	3%
Cc1ccc(S(=O)(=O)N2CCCN(c3nccc(C(F)(F)F)n3)CC2)cc1	3	-0.4	.	.	-6%
Cc1ccccc1N1C(=O)CN(Cc2sccc2C)C1=S	50	-0.9	-37	-3	6%
O=C1Nc2cc(C(=O)N3CCC4(CC3)OCCO4)ccc2S/C1=C\c1ccccc1	-2	-6.8	.	.	.
CCCCNC(=O)N1CCC(CCC(=O)N(C)Cc2ccccc2)CC1	-2	-1.3	.	.	.
COC1C(C)=C(C)C(=O)N1Cc1ccccc1 (stereo not drawn)	-1	-3.9	.	.	.
O=C(NCc1ccncc1)C1CCCCC1	5	-1.5	1	9	-4%
Cc1ccc2c(CC(=O)NCC(C)(C)N3CCOCC3)coc2c1	0	-3.3	.	8	-3%
COc1ccc(CC(=O)OCc2nnc(C3COc4ccccc4O3)o2)cc1OC (stereo not drawn)	-5	1.1	-4	4	-8%
CCCn1c(Nc2ccccc2C)nc2ccccc21	-8	-1.9	-15	-2	-8%
C/C(=N\NC(=O)c1ccc2c(c1)OCO2)c1ccco1	0	-0.2	.	-8	-6%
COc1cc2sc3ccc(-c4ccc5[nH]ccc5c4)cc3c(=O)c2cc1OC	0	3.3	.	.	53%
CC(C)(C)c1ccc(OC(=O)c2ccc3snnc3c2)cc1	99	-1.5	-14	5	5.9µM*
Cc1cc(Cl)ccc1OCC(=O)NCCOC(=O)Nc1sc(=S)n(C)c1C	-5	-0.2	-33	-1	3%
Cc1cc(S(=O)(=O)Nc2c(C)ccc3nsnc23)ccc1F	?	4.0	-12	-6	1%
Cc1cccc(NC(=S)N2CCN(S(=O)(=O)c3ccccc3)CC2)c1	0	0.1	.	.	.
Cc1onc(-c2ccccc2)c1C(=O)NNC(=S)NC(=O)c1ccc(Cl)cc1Cl	-3	0.8	-16	-19	20%
Cc1ccc(Cn2c(N/N=C/c3ccncc3)nc3c2c(=O)n(C)c(=O)n3C)cc1	-1	-12	.	.	13%
Nc1ccccc1C(=O)N1CCc2ccccc21	2	2.4	.	.	.
O=C(COC(=O)c1ccccc1[N+](=O)[O-])c1ccc2c(c1)OCO2	-6	-0.3	.	.	.
CCCCC#Cc1cncc(C(=O)N/N=C/c2cccc(OC)c2)c1	88	5.0	.	.	68%
O=C1C(=O)c2ccccc2C([O-])=C1[n+]1ccccc1	-2	84*	.	.	-11%
Cc1ccc(C(=O)N[C@@H](C)CN2C3=NC[C@H](C)N3C[C@H]2Cc2ccc(O)cc2)cc1Br	.	-1.0	.	.	-10%
Cc1cc(C)cc(NS(=O)(=O)c2ccc3[nH]c(=O)[nH]c3c2)c1	0	2.0	31	4	-1%
CS(=O)(=O)N1CCN(c2ccc(NC(=O)C(c3ccccc3)c3ccccc3)cc2)CC1	3	1.9	-28	18	-9%
CC(C)CNC(=O)c1cc(-c2ccco2)on1	-1	1.4	-34	1	6%
COc1ccccc1/C=N\NC(=O)c1c(C)nc2ccc(Cl)cn12	5	-2.3	.	.	.
Cc1oc(C(C)(C)C)cc1-c1cc(NC(=O)c2ccc([N+](=O)[O-])cc2)n[nH]1	2	-1.7	.	.	-5%
Cc1ccc(-n2c(=O)c3sccc3n(CC(=O)NC3CCCCC3)c2=O)cc1	-2	-4.2	.	7	-5%
COc1ccc(CNC(=O)c2ccc(N3CCC4(CC3)CC(c3ccc(Cl)cc3)=NO4)c([N+](=O)[O-])c2)cc1	28	1.0	.	.	15%
N#CN=C1CCCCCN1CC(N)=O	0	-0.1	-42	-1	-7%
Nc1nc(CN2CCN(Cc3ccc4c(c3)OCO4)CC2)nc(Nc2ccccc2)n1	6	-0.6	-26	3	-5%
O=C(NC(=S)NCCCN1CCOCC1)c1ccc(Br)cc1	-3	-1.9	.	10	6%
Cc1cc(NC(=O)CCCSc2nc(-c3ccco3)cc(C(F)(F)F)n2)n(-c2ccccc2)n1	-4	1.0	11	-24	4%
O=C(COc1ccc2ccccc2c1)N1CCN(C(=O)c2cccnc2)CC1	3	0.9	-27	6	-1%
CCOC(=O)C1=C(C)Nc2ccc(C)cc2S1	-10	-2.3	-11	-2	6%
C=CCn1c(SCC(=O)N2CCN(C(=O)c3ccco3)CC2)nc2sc(CC)cc2c1=O	-8	0.8	-31	-9	3%
COC(=O)c1ccccc1NC(=O)Nc1c(C)n(C)n(-c2ccccc2)c1=O	-9	-1.8	.	.	.
O=C(/C=C/c1ccc(Cl)c(C(F)(F)F)c1)N1CCN(c2ccccn2)CC1	1	3.1	.	.	.
COc1ccc(N(C(=O)c2ccncc2)S(=O)(=O)c2cccc([N+](=O)[O-])c2)cc1	-1	4.2	.	.	.
O=C(CN1CCN(Cc2ccccc2)CC1)Nc1ccc(Cl)cc1	-1	-0.3	.	.	.
Cc1c(NC(=O)c2cc(-c3ccc(O)cc3)on2)c(=O)n(-c2ccccc2)n1C	99	-2.9	.	.	49%
Cc1oc2c(c1C(=O)c1ccccc1)C(=O)C(=O)c1ccccc1-2	14	12	89*	-41	10%
COc1ccc(CNC(=O)C2CSCCS2)cc1 (stereo not drawn)	-7	-0.6	-35	3	-15%
O=S(=O)(NCCC1=CCCCC1)c1cccc(S(=O)(=O)N2CCOCC2)c1	1	3.7	-27	3	0%
O=C(Nc1ccccc1-c1nnc(SCc2ccccc2Cl)o1)c1ccccc1	11	2.2	-46	3	-8%
COc1ccc(OC)c(S(=O)(=O)Nc2cccc(-c3ccc(N4CCCCCC4)nn3)c2)c1	-3	-0.1	.	.	.
Cc1c(C(=O)NC2CCN(Cc3ccccc3)C2)oc2c(Cl)cccc12 (stereo not drawn)	-5	1.1	.	.	.
Cc1ccc(C(=O)O/N=C(\N)c2ccccn2)cc1	7	-3.0	.	.	.
Cc1cccc(OCC(=O)NNC(=O)CCc2ccccc2)c1	.	-1.2	.	-2	-4%
O=C(/C=C/c1cccnc1)c1cc(F)ccc1O	2	-0.1	.	.	-8%

Ordered by SMILES length (low to high): 3 of the compounds above
SMILES	Mtb bLac sens	RecA splice inh	YopH inh	Arbovirus inh	Mtb growth	others
Cc1c(C(=O)NC2CCN(Cc3ccccc3)C2)oc2c(Cl)cccc12 (stereo not drawn)	-5	1.1	.	.	.
Nc1nc(CN2CCN(Cc3ccc4c(c3)OCO4)CC2)nc(Nc2ccccc2)n1	6	-0.6	-26	3	-5%
C=CCn1c(SCC(=O)N2CCN(C(=O)c3ccco3)CC2)nc2sc(CC)cc2c1=O	-8	0.8	-31	-9	3%

(more compounds)
SMILES	Mtb bLac sens	RecA splice inh	YopH inh	Arbovirus inh	Mtb growth	others
O=C(Nc1ccccc1Sc1ccccc1)c1ccccc1F	71	2.8	-29	.	-1%
CCc1cc2c(=O)c(-c3nc(C)cs3)c(CCCC(=O)O)oc2cc1O	1	-0.2	.	-3	5%
CC(C)(C)NCC(O)(c1ccc(Cl)cc1)c1ccc(Cl)cc1	-6	9.6	.	-24	7%
CCc1c(C)sc(NC(=S)N2CCN(S(C)(=O)=O)CC2)c1C(=O)OC	-4	-1.7	.	.	7%
CC(C)c1ccc(C(C(=O)NC2CCCCC2)N(C(=O)c2ccccn2)c2cccnc2)cc1 (stereo not drawn)	-7	0.1	.	7	2%
COc1cccc(CNC(=O)c2nnn(CC(=O)Nc3cccc(C)c3)c2N)c1	5	2.1	.	.	.
COc1ccc(S(=O)(=O)NC2(C(F)(F)F)NC(=O)N(CCc3ccc(OC)c(OC)c3)C2=O)cc1 (stereo not drawn)	-8	-1.6	.	.	.
N/C(=N\OC(=O)CCCOc1ccccc1)c1ccncc1	-1	-0.2	.	2	10%
Fc1ccc(F)c(NC(=S)NCCc2ccccc2)c1	-14	2.8	.	1	12%
CC1=NN(C(=O)CSCc2ccccc2)C(O)(c2ccc(F)cc2)C1 (stereo not drawn)	2	1.4	.	-14	5%
O=P(O)(c1ccccc1)c1ccccc1O	-9	-2.1	-44	9	.
CCOc1cc(C2NC(=O)N(C)C(C)=C2C(=O)OC)cc(Br)c1O (stereo not drawn)	-1	3.0	-36	9	-3%
COc1ccc(/C=C2\SC(=O)N(CCn3cnnn3)C2=O)cc1	-7	0.0	.	-2	-3%
O=C(Nc1nnc(-c2ccc(Cl)s2)o1)C1CC1	94	-0.5	.	-6	?
O=C(CCc1cccc(Cl)c1)N1CCCC(Nc2ccccc2)C1 (stereo not drawn)	-1	4.7	.	.	.
Cn1cnc([N+](=O)[O-])c1Sc1ncnc2nc[nH]c12	5	4.8	.	.	7%
COC(=O)Cn1cc(C(=O)OC)cc(Br)c1=O	-16	2.2	-46	-3	-1%
CCn1cc(C(=O)NCc2ccc3c(c2)OCO3)c(=O)c2cc(S(=O)(=O)N3CCOCC3)ccc21	-5	-4.7	-37	-9	-10%

Bioassay records from PubChem BioAssay.

Only part of the results is shown. The share of hits here may be higher or lower than overall.
